# Assay outcomes as filed in PubChem.
# TRPV1 potentiator = human TRPV1 potentiation; Q8NER1; TRPV1-expressing cells, Fluo-8 calcium influx, capsaicin EC20 potentiation; host cell line not named in the record; control for the full effect not named in the record; potentiation, % at 8.33 µM; actives 0.02% (n = 320,000); active means potentiation above 80%; inconclusive means 30% to 80%; inactive means below 30%; further: 0% is about no effect
#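 Cells expressing TRPV1 were dye-loaded with Fluo-8 and read kinetically: 10 s baseline, 3 min after compound (agonist portion), then 2 min after EC20 capsaicin (allosteric enhancer portion). Calcium-bound dye fluorescence at 480/520 nm.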
# D2 potentiator = human D2 receptor positive allosteric modulation. DiscoveRx D2 beta-arrestin cells, luminescence, 90 min; 100% = 57 uM dopamine signal. actives 0.23% (n = 360,000). potentiation, % (concentration not given with the values). P14416; active = potentiation of 50% or more; inconclusive = 30% to 50%; inactive = 30% or less;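 further: compound concentration not given in the record; tested on top of an EC20 dose of dopamine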
# Target sequence (P14416 whole entry, looked up): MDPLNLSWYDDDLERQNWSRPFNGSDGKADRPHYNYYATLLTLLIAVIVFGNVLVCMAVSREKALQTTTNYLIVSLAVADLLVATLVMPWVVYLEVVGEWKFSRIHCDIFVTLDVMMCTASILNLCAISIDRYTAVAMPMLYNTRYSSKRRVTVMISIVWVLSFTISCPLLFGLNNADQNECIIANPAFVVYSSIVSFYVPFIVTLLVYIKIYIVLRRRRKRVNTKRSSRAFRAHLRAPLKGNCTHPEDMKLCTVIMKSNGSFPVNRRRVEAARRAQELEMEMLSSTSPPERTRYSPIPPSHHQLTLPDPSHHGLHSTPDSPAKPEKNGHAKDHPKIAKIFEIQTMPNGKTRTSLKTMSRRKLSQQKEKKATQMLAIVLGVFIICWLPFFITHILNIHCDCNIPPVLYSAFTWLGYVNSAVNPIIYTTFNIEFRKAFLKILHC
#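 D2 cells co-treated with compound plus 50 nM dopamine (EC20) for 90 min at 37 deg C to detect potentiation. Beta-arrestin recruitment was read as enzyme-fragment luminescence after 1 h at ambient temperature. Full response was set by 57 uM dopamine.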
# Menin-MLL FL inh = menin-MLL binding inhibition, fluorescein peptide | Fluorescence polarization, fluorescein-MLL peptide displacement from menin | 290,000 tested, under 10 active | FP activity change, % at 61.4 µM | AID 1766; inconclusive = falling polarisation curve, or a change in total fluorescence; inactive = total fluorescence flat and polarisation flat or rising; no compound was filed as active; the % refers to the polarisation; negative = inhibition;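 further: % of control where 0% means no effect; inhibitors lower the polarisation; unlabelled MLL peptide was the positive control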
# gsp antagonist = antagonizes gsp, the McCune-Albright syndrome mutation. actives 0.4% (n = 340,000). Potency, µM (top dose mostly 76.9 µM), for inactives: top-dose activity change, negative = inhibition, usual class: inhibitors. gsp-mutant cells, cAMP HTRF, 30 min; control for the full effect not named in the record; active = falling curve of any shape with a large fitted effect; inconclusive = falling curve, mostly with a smaller effect; inactive = flat or rising curve; cell line not stated here;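 further: intracellular cAMP measured with PDE inhibitor Ro 20-1724 present during compound exposure; potency means the concentration at half of the fitted maximal effect; on the % scale 0 is the no-effect control and ±100 the full control effect; nearly all actives have a fitted effect of over 65% in size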
#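 HTRF cAMP read-out (cAMP-d2 plus anti-cAMP antibody-K in lysis buffer, 30 min RT). Before lysis, cells are exposed to compounds with […] for 30 min at 37C in DPBS containing Ca/Mg, BSA and Tween 20.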
# gsp agonist = agonists of gsp mutant (McCune-Albright syndrome) | actives 0.13% (n = 340,000) | gsp mutant cells, cAMP HTRF, 30 min; control for the full effect not named in the record | Potency, µM (titrated, usually from 76.9 µM), without a hit: top-dose activation (cAMP increase), actives largely listed as activators; active = well fitted activation curve with a large enough effect; inconclusive = small, poorly fitted or top-dose-only effect, or another doubt; inactive = no such curve, though single readings can be large or run the other way; cell line not stated here;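 further: phosphodiesterase inhibitor Ro 20-1724 added with compounds to block cAMP breakdown; potency means the concentration at half of the fitted maximal effect; nearly all actives have a fitted effect of over 60% in size; about a fifth of the inactives were tested at one dose only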
#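 Cells stably selected in G418 were plated at 2000/well, grown 16-24 hr, then given compounds in DMSO with the PDE inhibitor […] (300 uM solution added) for 30 min at 37C; cAMP was read by HTRF.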
# ClpP mod = qHTS Assay for Activators of ClpP; actives 1.9% (n = 340,000); AID 651965, 2013; ATP-dependent Clp protease proteolytic subunit (Bacillus subtilis (strain 168)), P80244; purified B. subtilis ClpP, FRET peptide cleavage, 20 min; Potency, µM (series often up to 57.5 µM), for inactives: top-dose activity change, negative = active; active = well fitted falling curve with a large enough effect; inconclusive = small, poorly fitted or top-dose-only effect; inactive = no such curve, though single readings can be large or run the other way; further: potency means the concentration at half of the fitted maximal effect; the source files actives as falling curves though it sought activators and does not explain the sign; nearly all actives have a fitted effect of over 65% in size; many hits overshoot -100%
# Target sequence (P80244 whole entry, looked up): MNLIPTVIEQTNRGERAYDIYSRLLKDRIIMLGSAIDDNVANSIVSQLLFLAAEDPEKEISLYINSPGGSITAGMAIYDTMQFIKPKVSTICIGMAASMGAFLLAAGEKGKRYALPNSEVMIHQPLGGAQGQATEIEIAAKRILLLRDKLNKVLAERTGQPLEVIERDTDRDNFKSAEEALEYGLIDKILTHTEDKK
#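 Purified B. subtilis ClpP, 10 microg/mL final in Tris/HCl pH8 with KCl, BSA, glycerol and Tween-20, cleaved an Abz/nitrotyrosine-quenched decapeptide. Fluorescence (ex 320, em 430) was read at 0 and 20 min at room temperature. Delta was normalized to 5.8 microM ADEP and DMSO/no-enzyme controls.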
# Sfp PPTase inh = Sfp phosphopantetheinyl transferase inhibition; actives 3.5% (n = 310,000); Q9F4F7; Biochemical Sfp PPTase activity, qHTS; Potency, µM, for inactives: max response, negative = inhibition, actives largely listed as inhibitors; active means well fitted inhibition curve with a large enough effect; inconclusive means small, poorly fitted or top-dose-only effect, or another doubt; inactive means no such curve, though single readings can be large or run the other way;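 further: the enzyme is Sfp with the accession as filed and its product quenches rhodamine fluorescence; potency means the concentration at half of the fitted maximal effect; 0% = enzyme reaction without inhibitor and -100% = no enzyme wells; top concentration of the series not given in the record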
#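 Fluorescence-quenching assay: 15 nM Sfp-PPTase preincubated 15 min at room temperature with compound, then 5 uM rhodamine-CoA and 12.5 uM BHQ-2-labelled YbbR peptide added. Fluorescence (ex 525/em 598 nm) read at start and after 30 min; difference gives rate.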
# Starred values were filed as active, the others as inactive; ? = inconclusive; / = no result given; & = joins results of further samples; [ ] = dose if it differs, or a comment.
canonical_smiles | TRPV1 potentiator | D2 potentiator | Menin-MLL FL inh | gsp antagonist | gsp agonist | ClpP mod | Sfp PPTase inh
CCOC(=O)CC1COc2ccccc2N1C(=O)c1ccc(C)cc1 (stereo unspecified) | -11.3 | -9.6 | 1.2 | -3.2% | 18.2% | 0.0% | 17.2%
CCN1C(=O)[C@@H]2[C@@H](c3ccc(-c4ccc(OC)cc4)c(OC)c3)N3CCC[C@@]3(C(=O)OC)[C@@H]2C1=O | 29.8 | 2.4 | / | -14.0% | 5.7% | -8.5% | /
Cc1nnc(N/N=C\c2ccc(-c3ccccc3[N+](=O)[O-])o2)n1N | 9.9 | 9.8 | -0.6 | 1.8% | -2.3% | -1.7% | 17.8µM*
Cc1cccc(N/N=C(\C#N)S(=O)(=O)C(C)(C)C)c1 | -4.5 | -6.0 | 1.3 | -22.8% | -2.6%[15.4 µM] | / | -1.6%
CCCCc1nc2ccccc2c(NC(=O)CN2CCCC2)c1CCC | 8.6 | -15.4 | 0.6 | -1.2% | 7.7% | -0.6% | -46.3%
Cc1cc(NC(=O)CSc2nnc(-c3cccc(Cl)c3)o2)no1 | 19.1 | -1.7 | / | -4.2% | -6.3% | -2.3% | 5.2%
CC(=O)Nc1cccc(-n2nnc(SCC(=O)N(C)c3ccccc3)n2)c1 | -16.7 | -1.0 | 1.1 | -6.3% | -3.8%[15.4 µM] | 0.2% | 17.5%
CCc1ccc2c(c1)C1(SC(NC(C)=O)=NN1C(C)=O)C(=O)N2CC (stereo unspecified) | 22.5 | -7.8 | 0.6 | -1.2% | 18.1%[15.4 µM] | -2.1% | 9.0%
CC1CCc2c(C(=O)NCC3CCCO3)csc2C1 (stereo unspecified) | -2.5 | -1.5 | 0.7 | -3.0% | -18.4% | 0.0% | -0.7%
O=C(Nc1ccccc1)OCCCc1ccccc1 | 6.7 | -4.2 | -0.2 | 0.2% | 8.4%[15.4 µM] | / | 12.9%
CNC(=O)c1sccc1SCc1c(Cl)cccc1Cl | 0.3 | 3.7 | 6.8 | -21.0% | 17.5% | 1.4% | -5.5%
Cc1nn(C(C)C(=O)O)c2ccccc12 (stereo unspecified) | -11.8 | 1.3 | 4.1 | -0.1% | -3.9% | -1.9% | 12.8%
COc1ccc(-c2cc(C(=O)NNC(=O)c3csc(N4CCOCC4)n3)c3ccccc3n2)cc1 | 11.5 | -29.2 | / | 4.7% | 9.1%[15.4 µM] | ? | /
NC(=NC(=O)c1ccccc1)N1CCOCC1 | 16.6 | -6.3 | -0.8 | 6.3% | -4.5% | 1.5% | 15.8%
COc1ccc(NC(=O)c2[nH]c(C)c(C(C)=O)c2C)cc1 | -3.3 | -8.0 | 2.9 | -22.4% | -15.4%[15.4 µM] | / | 11.6%
CC(=O)N1CCC(=NNc2nc3ccccc3[nH]2)CC1 | 8.3 | -15.0 | -1.4 | -12.8% | 0.3% | / | -59.5%
COc1cc(C)c(NC(=O)COc2cccc3c2OC(C)(C)C3)cc1OC | -8.7 | -14.7 | / | -27.7% | -20.1% | -1.2% | /
CCC(c1nnnn1CC1CCCO1)N(CCCO)Cc1cc2cccc(C)c2[nH]c1=O (stereo unspecified) | -8.7 | -4.4 | 2.8 | 3.9% | -6.8% | -10.8% | 1.6%
CCOP(=O)(OCC)C(NC(=O)Nc1cccc(Cl)c1)c1ccccc1 (stereo unspecified) | -11.6 | 3.3 | 9.8 | -4.5% | -16.7% | / | 9.2%
O=c1/c(=C\c2ccc(O)cc2)sc2nc(-c3ccccc3)c(-c3ccccc3)n12 | 9.6 | -5.9 | ? | 11.5% | -43.1%[inhibitor] | -23.6% | -15.8%
O=C(Nc1ccc([N+](=O)[O-])cc1NC(=O)c1ccccc1)c1ccccc1 | / | 2.6 | / | -9.8% | -17.2% | / | /
CCC(=O)NNc1nc2c(F)cccc2s1 | -10.3 | -6.6 | -0.2 | 8.9% | -117.1%[inhibitor] | -0.6% | 15.8%
COc1ccc(C(=O)NCc2ccco2)cc1S(=O)(=O)NC1CC1 | 19.8 | -1.0 | / | 8.6% | 31.1% | 0.6% | /
O=C(COc1ccc(/C=N/NS(=O)(=O)c2ccccc2)cc1)NCCc1ccccc1 | ? | -6.2 | 3.5 | -11.2% | 6.5% | 0.4% | 8.2%
Cn1c(=O)c2c(nc(NCCNC(=O)c3ccco3)n2Cc2ccccc2)n(C)c1=O | -5.2 | -1.5 | 4.4 | / | -3.5%[15.4 µM] | / | 19.3%
O=C1CCCCC1C(=O)c1ccccc1 (stereo unspecified) | -3.6 | -6.1 | 1.7 | -0.1% | 7.2% | / | 20.3%
COC(=O)c1sc(NC(=O)c2oc3ccccc3c2C)nc1C | 5.9 | -2.5 | -0.2 | 0.8% | -8.8% | 6.2% | 4.3%
O=C(NCc1ccccc1)C1(C(F)(F)F)C/C(=C/CCO)CCCO1 (stereo unspecified) | / | -17.0 | -8.3 | 10.3% | / | 3.0% | -12.2%
Cc1cc2ncn(C3CC(=O)N(Cc4ccc(N5CCCC5=O)cc4)C3=O)c2cc1C (stereo unspecified) | 9.6 | 2.6 | 0.4 | ? | -6.2% | 1.0% | -0.8%
CCCCCn1c(N)c(C#N)c2nc3ccccc3nc21 | -8.6 | -12.2 | 0.7 | -2.3% | -25.6% | ? | 9.8%
O=C(CC(=O)c1ccccc1)Nc1ccccn1 | 1.3 | 0.2 | 6.1 | 1.8% | -50.0%[inhibitor] | / | -6.8%
O=C(O)Cn1nc(C(F)(F)F)c2c1CCCCC2 | -1.8 | -16.1 | 2.1 | -3.2% | -4.9% | 0.4% | 14.5%
O=C(NC(=S)N1CCCCC1)c1cccs1 | -5.3 | 2.8 | 1.9 | 12.5% | -34.1% | -3.2% | -15.4%
Cc1cc(C)n(CCCNCC(O)c2ccccc2)n1 (stereo unspecified) | 0.3 | -15.5&-32.4 | 0.2 | 11.4%&1.1% | -1.4%&-9.2% | -0.6% | -17.9%
COc1cccc(-c2nc(CS(=O)(=O)CC(=O)NCCCOC(C)C)c(C)o2)c1 | 19.6 | -3.8 | -7.6 | 15.3% | -2.8% | -17.7% | -14.2%
CC(C(=O)NCc1ccc2c(c1)OCO2)N1c2cccc3cccc(c23)S1(=O)=O (stereo unspecified) | 11.8 | -0.6 | ? | ? | -7.9% | -9.4% | 6.0%
O=C(CN1CCN(c2ccccc2O)CC1)Nc1ccccc1C(=O)NCCc1ccccc1 | 11.4 | 6.0 | / | 0.6% | 14.9% | -5.6% | /
COc1nc(C)nc(NC(=O)NS(=O)(=O)c2ccc(C)cc2)n1 | 2.2 | -7.9 | -1.2 | 13.7% | -4.9% | -1.5% | 3.5%
CCOC(CNC(=O)c1ccc(CNC(=O)c2ccc(OC)c(OC)c2)cc1)OCC | 0.5 | -6.9 | 1.1 | -14.4% | -2.3%[15.4 µM] | 0.1% | 27.8%
COC(=O)c1ccc(N2CCOCC2)c(NC(=O)Nc2cccc(OC)c2)c1 | -2.9 | -2.5 | 0.3 | -18.3% | ? | -0.5% | ?
CCCCC(=O)Nc1ccc(NC(=O)c2ccccc2OC)cn1 | -11.0 | -1.9 | 0.5 | 1.0% | -15.1% | -1.0% | 1.2%
CC(C)CNS(=O)(=O)c1ccc(OCC(=O)NCC2CCCO2)c(Cl)c1 (stereo unspecified) | 6.3 | -2.0 | -0.4 | 7.8% | -0.5% | -8.5% | 15.4%
CCOC(=O)c1nnc2cc(-c3ccc(Br)cc3)nn2c1C | -10.3 | 14.2 | -1.2 | -8.8% | -38.5% | -1.7% | -0.1%
CN1CCC(=O)N([C@H](CN=[N+]=[N-])Cc2ccccc2)CC1 | 15.5 | -9.5 | -0.2 | 10.4% | -10.2% | -27.8%&-5.5% | 7.4%
CC(=O)Nc1ccccc1NC(=O)C/C(C)=N/NC(=O)C(=O)Nc1cccc(Cl)c1C | 4.5 | -1.7 | -0.3 | 6.6% | 13.0% | 1.1% | 9.2%
CC(=O)N1CCc2cc(S(=O)(=O)CCC(=O)NCc3ccc(Cl)cc3)ccc21 | -0.4 | 1.6 | -0.9 | -0.4% | 26.2% | -2.9% | 9.6%
Cc1ccc2[nH]c(=O)c(CN(Cc3cccnc3)C(=O)c3ccncc3)cc2c1 | 2.8 | -9.7 | -0.9 | 9.1% | ? | ? | 16.5%
CCN(CC(=O)NC1CCS(=O)(=O)C1)S(=O)(=O)c1cc([N+](=O)[O-])ccc1C (stereo unspecified) | 2.4 | 5.3 | / | 7.9% | -14.3% | 1.6% | /
NS(=O)(=O)c1ccc(CNC(=O)C23CC4CC(CC(C4)C2)C3)cc1 | 14.7 | -7.9 | -0.8 | -0.9% | 5.6% | -4.3% | 11.0%
O=C(c1c[nH]c(C(=O)N2CCN(c3ccccc3F)CC2)c1)c1cccc(Cl)c1Cl | -2.0 | -16.6 | -0.3 | 9.7% | 26.6% | -1.2% | 17.3%
Cc1cccc(CCNc2nc3ccccc3n3nnnc23)c1 | / | 6.1 | 0.4 | 8.0% | 4.1% | -2.4% | 21.0%
Cn1ccnc1SCC(=O)NC1CC1 | -9.7 | 3.8 | 0.1 | 0.0% | -79.6%[inhibitor] | 1.5% | 9.8%
COC(=O)/C(=C\Nc1ccc(Cl)cc1Cl)NC(=O)c1ccc(OC)cc1 | 0.0 | -13.6 | 3.4 | 20.1% | 5.8%[15.4 µM] | / | -5.9%

# Taken from above.
# Under D2 potentiator, Cc1cccc(CCNc2nc3ccccc3n3nnnc23)c1 is entered as 6.1
# Under TRPV1 potentiator, O=C(c1c[nH]c(C(=O)N2CCN(c3ccccc3F)CC2)c1)c1cccc(Cl)c1Cl is entered as -2.0

# Record cards, as listed above. Screens in order: TRPV1 potentiator	D2 potentiator	Menin-MLL FL inh	gsp antagonist	gsp agonist	ClpP mod	Sfp PPTase inh
# NS(=O)(=O)c1ccc(CNC(=O)C23CC4CC(CC(C4)C2)C3)cc1 across the screens: 14.7	-7.9	-0.8	-0.9%	5.6%	-4.3%	11.0%
# COC(=O)/C(=C\Nc1ccc(Cl)cc1Cl)NC(=O)c1ccc(OC)cc1 across the screens: 0.0	-13.6	3.4	20.1%	5.8%[15.4 µM]	/	-5.9%
# Cc1cccc(CCNc2nc3ccccc3n3nnnc23)c1 across the screens: /	6.1	0.4	8.0%	4.1%	-2.4%	21.0%
